Yeast UUG start – yeast start codon fidelity modulation. hit rate 0.13% among 350,000. activity score, % at 18.7 µM. S. cerevisiae UUG-firefly luciferase reporter, luminescence/redox ratio;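 active = replicate mean at a twofold rise or more, about +100% in these data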;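 also: firefly luciferase made from a UUG start codon reports start codon fidelity; reporter light over untreated wells divided by growth signal over untreated wells; some hits fall short of that in this replicate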
eIF4H inh – inhibitors of RNA binding by human eIF4H; eIF4H fluorescence polarization binding assay; inhibition, % at 35 µM; hit rate 0.94% among 290,000; AID 2012;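 active = 50% or more with normal probe brightness, or confirmed in later tests; inconclusive = above 50% with abnormal brightness, or retests that disagree; inactive = below 50% or failed in later tests; about a fifth of its hits are not listed in these tables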;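 also: calls also rest on retests at 20 µM and on dose response follow-up; 0% = protein and probe with vehicle and 100% = probe without protein; strong numbers were not always called active; many hits fall short of the cut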
MT1-MMP act inh – blocks activation of human MT1-MMP. HT1080 RFP-PRO-GFP cells, GFP/RFP ratio fluorescence, overnight; percent of plate control window, DMSO zero. AID 651647. GFP/RFP ratio change, % at 20 µM. hit rate 0.061% among 360,000;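 active = GFP/RFP ratio change of at least 30% with cell ATP level not reduced by more than half and red fluorescence within 50% of control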; also: strong numbers were not always called active
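Test system: HT1080 cells expressing an RFP-PRO-GFP fluorescent reporter construct / Compound dosing: single-point 20 µM compound, 1% DMSO / Schedule: cells overnight before dosing, compound overnight, 37 °C, 5% CO2 / Evaluation: GFP/RFP fluorescence ratio / Control set: DMSO and RFP-L50D-GFP cell wells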
Env fusion inh – inhibitors of HIV Env-mediated cell fusion | hit rate 1.1% among 360,000 | HeLa-JRFL Env/CEM21 cell fusion, luciferase | inhibition, % at 12.3 µM;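 active = mean replicate inhibition score of at least 50 and every replicate individually at or above 50; inconclusive = only one of the two criteria met; inactive = mean below 50 and not all replicates reaching 50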;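 also: 0% = plate neutral controls and 100% = maraviroc near 300 nM; one replicate is shown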
Rce1 inh – blocks yeast Ras-converting enzyme. yeast membranes, quenched prenylated peptide cleavage fluorescence. calls only. AID 2563. hit rate 0.27% among 290,000;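 active = fall in fluorescence gain of 50% or more versus controls, with final raw signal at or below 3038400; inconclusive = same 50% fall but final raw signal above 3038400; inactive = fall in fluorescence gain under 50%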;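 also: plate controls were neutral control wells for no effect and wells lacking membranes for full effect; tested at 10 µM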
Target sequence (Q03530 whole entry, looked up): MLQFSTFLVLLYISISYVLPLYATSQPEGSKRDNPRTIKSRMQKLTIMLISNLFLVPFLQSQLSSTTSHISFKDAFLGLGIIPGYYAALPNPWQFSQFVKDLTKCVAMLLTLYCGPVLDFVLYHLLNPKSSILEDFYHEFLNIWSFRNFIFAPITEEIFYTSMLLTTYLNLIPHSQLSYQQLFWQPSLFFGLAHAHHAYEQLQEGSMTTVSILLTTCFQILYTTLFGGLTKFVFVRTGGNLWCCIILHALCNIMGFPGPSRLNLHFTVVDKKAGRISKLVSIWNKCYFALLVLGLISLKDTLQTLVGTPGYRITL
CSC inhib – cancer stem cell inhibition. cancer stem cell-like cells viability, luminescence. inhibition, % at 7.5 µM. hit rate 1.1% among 300,000;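 active = mean at 75% or more and at least half the replicates too; inconclusive = mean and replicates disagree; tested in HMLE shEcad cells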;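 also: 0% = median of negative and 100% = median of positive control wells; the first replicate is given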
PABP polyA inh – blocks human PABP binding to poly(A) RNA; P11940; fluorescence polarization; inhibition, % at 35 µM; hit rate 1% among 290,000; AID 2014;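 active = 50% or more with normal probe brightness, or confirmed in later tests; inconclusive = above 50% with abnormal brightness, or retests that disagree; inactive = below 50% or failed in later tests; about a fifth of its hits are not listed in these tables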;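 also: calls also rest on retests at 20 µM and on dose response follow-up; controls were probe without protein and protein plus probe with vehicle; some compounds called inactive have numbers as strong as hits; many hits fall short of the cut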
eIF4H inh retest – also measured in eIF4H inh; calls as there; inhibition, %; compound at 20 µM; confirmation average;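 mean of two retest wells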
PABP polyA inh retest – second read-out of PABP polyA inh, no call of its own (marks repeat the call); inhibition, %; compound at 20 µM; confirmation repeats;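 mean of two retest wells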
MT1-MMP act inh RFP – further read-out of MT1-MMP act inh, marked with its call; RFP signal change, %; measured here: RFP expression control read;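 0 = vehicle wells; hits needed this value within 50% of zero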
Active calls of the source: *; i = inactive; ? = inconclusive; / = not tested or not shown; & = joins results of further samples; [ ] = another dose, or the depositor's remark. This is a subset; rates above refer to the full screens.

SMILES | Yeast UUG start | eIF4H inh | MT1-MMP act inh | MT1-MMP act inh RFP | Env fusion inh | Rce1 inh | CSC inhib | PABP polyA inh | others
CCC(=O)N1CCc2cc(Br)cc(S(=O)(=O)NCCN3CCCC3)c21 | -20 | 9 | 2 | 5 | 11 | i | -11 | -6
O=C(Nc1cccc(Cl)c1Cl)c1csc([C@@H]2O[C@H](CO)[C@H](O)[C@H](O)[C@H]2O)n1 | -20 | / | 6 | 7 | 11 | / | / | /
COc1ccccc1NC(=O)NC(=O)N(C(C)C)S(C)(=O)=O | -12 | -4 | 8 | 1 | -18 | i | 13 | 0
COc1ccc(CC(=O)c2cc(OC)c(OC)cc2CC(=O)O)cc1OC | -6 | -2 | 1 | 5 | / | i | / | 3
COc1ccccc1NC(=O)COC(=O)C1C2CC3OC(=O)C1C3C2 (stereo not drawn) | -10 | 1 | -3 | 1 | -7 | i | -9 | -2
C1=Nc2c(Nc3ccccc3)ncnc2Oc2ccccc21 | 6 | 2 | / | / | -6 | i | -8 | 1
CC(C)(C)c1ccc(C(=O)Nc2cnccn2)cc1 | -62 | -2 | -4 | -5 | -75 | i | 6 | 0
CCOC(=O)Nc1ccc(C(=O)Oc2ccccc2)c(O)c1 | -23 | -2 | -1 | -1 | / | i | -6 | -4
O=C(O)C1Nc2c(C(=O)N3CCOCC3)cccc2C2C=CCC12 (stereo not drawn) | / | 99* | 11 | 14 | / | i | 3 | 50* | eIF4H inh retest=95*;PABP polyA inh retest=85*
COc1ccc(S(=O)(=O)N2CCc3cc4c(cc3C2C)OCCCO4)cc1 (stereo not drawn) | -22 | -6 | -5 | -5 | -2 | i | 7 | -7
COc1ccccc1-n1nc(C(=O)NCc2ccco2)c2ccccc2c1=O | -1 | -1 | 0 | -2 | / | / | -1 | -7
O=C1NCCCC1C(=O)Nc1ccccn1 (stereo not drawn) | -7 | -3 | -6 | 1 | -110 | i | -15 | -7
CCNC(=S)NCc1ccc(F)cc1 | -23 | 8 | -4 | -4 | -9 | i | 7 | 0
CC(=O)N/C(=C/c1ccc2c(c1)OCO2)C(=O)NCc1ccccc1 | / | -6 | -5 | -2 | -4 | i | 5 | -2
Cc1noc(C)c1CSCC(=O)Nc1cc(Cl)ccc1N1CCCCC1 | -7 | / | -12 | -1 | 43 | i | 13 | /
CSCCC(NC(=O)c1ccccc1Br)C(=O)NNC(=O)c1ccncc1 (stereo not drawn) | 7 | / | -4 | -2 | -4 | / | / | /
COc1ccc(OCCCC(=O)Nc2cc(S(=O)(=O)N3CCCCC3)ccc2OC)cc1 | -29 | / | 2 | -3 | 9 | / | -9 | /
Brc1cc(/C=N/n2cnnc2)oc1Br | / | -4 | 7 | 4 | -35 | i | -3 | 7
CNC(=O)CSc1nnc(COc2ccc([N+](=O)[O-])cc2)n1C | -12 | -3 | 1 | 1 | 8 | i | -4 | 8
CCOC(=O)C1=C(C)OC(N)=C(C#N)C1c1cc(C)sc1C (stereo not drawn) | -3 | -2 | 0 | 6 | / | i | -7 | -6
CCCc1cc(C(=O)Cc2ccc(C(=O)OCC)o2)c(O)cc1O | -15 | -2 | -19 | -2 | -113 | i | 12 | -3
COc1ccc(S(=O)(=O)N(C)C[C@H]2Oc3c(NC(=O)Nc4ccc5c(c4)OCO5)cccc3C(=O)N([C@H](C)CO)C[C@@H]2C)cc1 | 8&14 | / | 2 | -2 | -15[16.7 µM] | / | / | /
Cc1ccc(NC(=O)CSCC(=O)N2c3ccccc3CCc3ccccc32)cc1 | -7 | 4 | -5 | -2 | / | i | 13 | 4
CCC1=C(OC(=O)N(CC)CC)N2C(=O)OC(=NCC3CC3)[C@]2(Cc2ccccc2)[C@H]2C1=CC[C@H]1C(=O)N(C)C(=O)[C@H]12 | 11 | -1 | -16 | -13 | -35 | i | 0 | 0
O=C(NC1CCCCC1)C(c1ccncc1)N(C(=O)c1ccco1)c1ccc(F)cc1 (stereo not drawn) | -27 | -11 | 2 | 8 | -9 | i | -2 | -1
Cc1ccccc1NC(=S)N1CCN(Cc2ccccc2)CC1 | / | -9 | 3 | -1 | 5 | / | -21 | -5
CCN(CC)S(=O)(=O)c1cccc(-c2nnc(SCC(=O)NC)n2N)c1 | / | 1 | 6 | -1 | -1 | i | -11 | 19
COc1ccc(S(=O)(=O)N(C)CC(=O)Nc2ccc(C(N)=O)cc2)cc1OC | -16 | -4 | 3 | 5 | 16 | i | -2 | -1
C[C@@H]1CN([C@@H](C)CO)C(=O)c2cc(NC(=O)C3CCCCC3)ccc2O[C@@H](C)CCCCO[C@@H]1CN(C)C(=O)CCCN(C)C | -7&13 | / | 0 | 5 | -9 | / | / | /
O=C1OCC/C1=C\NCCCCCCCCN/C=C1\CCOC1=O | -1 | / | -5 | 7 | -4 | / | / | /
N#Cc1c(NC(=O)C2CC(c3c(F)cccc3Cl)=NO2)sc2c1CCC2 (stereo not drawn) | / | -8 | -2 | 0 | / | i | 6 | -2
CCOc1cccc(NC(=O)c2ccc(S(=O)(=O)N3CCCC3)cc2)c1 | 2 | 2 | 3 | -3 | -9 | i | -8 | 5
Cc1cc(F)ccc1S(=O)(=O)N1CCCOC1CNC(=O)C(=O)NCCc1c[nH]c2ccccc12 (stereo not drawn) | / | 0 | -2 | -9 | -6 | i | 0 | 6
CCOc1ccc(NC(=O)CN(C)C(=O)CCCn2c(=O)oc3ccccc32)cc1OCC | 7 | / | -5 | -2 | -2 | / | -11 | /
Cc1ccc(C2C(C(=O)c3cccs3)=C(O)C(=O)N2c2ccc(S(N)(=O)=O)cc2)cc1 (stereo not drawn) | / | 6 | 0 | 2 | -16 | i | -2 | 18
O=C1CN(CC(=O)Nc2cccc(Cl)c2Cl)c2ccccc2N1 | / | -12 | -18 | -2 | 11 | i | -15 | -5
COc1ccc(OC)c(/C=N/NC(=O)C(=O)NCc2cccnc2)c1 | / | -6 | -2 | 1 | 15 | i | -11 | 4
CCN(CC)c1ccc(NC(=O)c2ccccc2OCC(=O)OC)cc1 | / | -8 | 0 | 1 | 11 | i | -8 | 23
COc1ccccc1NC(=O)Nc1ccc(CC#N)cc1 | / | 2 | 1 | 1 | -5 | i | -17 | 2
Cc1c(C(=O)C(=O)N2CC=C(c3ccccc3)CC2)c2ccccc2n1C | / | -8 | -44 | -13 | -21 | i | 62 | -9
CN(C)/C=C/c1c(C#N)c(=O)ncn1Cc1ccccc1 | -2 | -3 | 5 | 4 | -391 | i | -14 | -8
O=[N+]([O-])c1cc(C(F)(F)F)ccc1NCCc1ccncc1 | / | -1 | 5 | -5 | -4 | i | 18 | 4
O=C(CCS(=O)(=O)c1ccccc1)Nc1nnc(-c2ccco2)o1 | -9 | 0 | -2 | 2 | -9 | i | 0 | 4
COc1cc(OC)cc(-c2cc3nc(C4CCN(C(=O)OC(C)(C)C)CC4)cc(=O)n3[nH]2)c1 | -5 | -2 | -2 | -5 | / | i | / | -8
COc1ccc(N(CC(=O)Nc2ccccc2C(=O)N2CCOCC2)S(=O)(=O)c2ccc(F)cc2)cc1 | / | -2 | -1 | 2 | 17 | i | -2 | -4
CCOC(=O)c1ccc[n+](C(C)C(=O)c2ccc(-c3ccccc3)cc2)c1 (stereo not drawn) | / | 21 | -29 | 1 | -3 | i | -6 | -3
COc1ccc(-c2csc(NC(=O)CCS(=O)(=O)c3ccccc3)n2)c(OC)c1 | / | -7 | -5 | -17 | -2 | i | 13 | -7
CSCCC(NC(=O)c1ccccc1)c1nc(-c2ccccc2)no1 (stereo not drawn) | / | -4 | / | / | / | i | / | 0
CN(Cc1ccccc1)C(=O)c1ccc(NC(=O)C2CCN(C(=O)OC(C)(C)C)CC2)cc1 | -19 | / | 0 | -26 | 9 | / | 12 | /
CC(=O)NC(C)C(=O)OCc1ccc(Cl)cc1Cl (stereo not drawn) | -11 | -2 | 1 | 3 | / | i | -1 | 24
CCOC(=O)c1sc(NC(=O)/C=C/c2cnn(C)c2C)c(C(=O)OC(C)C)c1C | -7 | 1 | -8 | -8 | / | i | -13 | -15
CCCS(=O)(=O)c1c(S(=O)(=O)CCC)c2c(N)cccn2c1C(=O)c1ccccc1 | -9 | ? | -27 | 4 | / | i | -7 | ?
CCOC(=O)c1c(S(=O)(=O)NCC(=O)Nc2cccc(C)c2)c(C)n(C)c1C | 4 | / | 0 | 4 | 32 | i | 4 | /
O=C1CCCc2c1nn(-c1ccccc1)[n+]2[O-] | / | 4 | -2 | -2 | / | i | -1 | -5
COc1ccc(OCCOC(=O)CNC(=O)c2ccc(C)cc2)cc1 | -13 | / | -2 | 1 | / | i | 25 | /
O=C(O)c1cccc(NC(=O)c2cn(-c3ccccc3)nc2-c2ccc([N+](=O)[O-])cc2)c1 | -7 | 6 | 4 | 4 | 15 | i | -12 | 1
COc1cccc(-c2cnc(C(O)c3cccc(OC)c3)[nH]2)c1 (stereo not drawn) | -22 | / | 3 | 4 | -9 | / | / | /
CC(C)(C)c1ccc(C(=O)NC(=S)NCc2ccco2)cc1 | -24 | 3 | -1 | 1 | -21 | i | 16 | 14
Cc1ccc(CNC(=O)c2cc(S(=O)(=O)N3CCOCC3)cn2C)cc1 | 1 | -9 | 1 | 6 | -17 | i | -5 | -10
C=CCC[C@H](Cc1ccc(F)cc1)C(=O)OC[C@H](Cc1c[nH]c2ccccc12)NC(=O)[C@@H](CC=C)CC(=O)N[C@@H](CO)Cc1ccccc1 | -18 | / | 2 | -6 | 24 | / | 39 | /

The list goes on; it opens with the 4 that closed the last part.
SMILES | Yeast UUG start | eIF4H inh | MT1-MMP act inh | MT1-MMP act inh RFP | Env fusion inh | Rce1 inh | CSC inhib | PABP polyA inh | others
COc1cccc(-c2cnc(C(O)c3cccc(OC)c3)[nH]2)c1 (stereo not drawn) | -22 | / | 3 | 4 | -9 | / | / | /
CC(C)(C)c1ccc(C(=O)NC(=S)NCc2ccco2)cc1 | -24 | 3 | -1 | 1 | -21 | i | 16 | 14
Cc1ccc(CNC(=O)c2cc(S(=O)(=O)N3CCOCC3)cn2C)cc1 | 1 | -9 | 1 | 6 | -17 | i | -5 | -10
C=CCC[C@H](Cc1ccc(F)cc1)C(=O)OC[C@H](Cc1c[nH]c2ccccc12)NC(=O)[C@@H](CC=C)CC(=O)N[C@@H](CO)Cc1ccccc1 | -18 | / | 2 | -6 | 24 | / | 39 | /
CCOc1ccc(N2CC(NS(=O)(=O)c3cccnc3)CC2=O)cc1 (stereo not drawn) | -3 | / | -2 | 2 | -12 | i | 3 | /
O=C(N/N=C/c1ccco1)C1CC1(c1ccccc1)c1ccccc1 (stereo not drawn) | 0 | 17 | -6 | -7 | ? | i | -8 | -9
O=C(O)C1Nc2c(O)cc(Cl)c([N+](=O)[O-])c2C2C=CCC12 (stereo not drawn) | / | ? | 0 | -5 | -13 | i | -8 | 5.4* | PABP polyA inh retest=96*
CC(C)(C)NNC(=S)Nc1ccc(S(=O)(=O)N2CCOCC2)cc1 | / | -2 | 0 | 1 | 2 | i | 0 | 29
CCCCN(C(=O)c1ccco1)c1nnc(-c2cc(OC)c(OC)c(OC)c2)s1 | / | 0 | 2 | 3 | -53 | i | -19 | -8
CC(CN1CCCCC1)NC(=O)c1cc(-c2ccccn2)nc2ccc(Cl)cc12 (stereo not drawn) | / | 19 | 3 | 7 | 6 | i | -7 | 6
CC(C)(C)c1[nH]ncc1[N+](=O)[O-] | / | -4 | 1 | 7 | -4 | i | -14 | 0
